Screening data deposited in PubChem by National Center for Advancing Translational Sciences (NCATS).
CtBP-E1A inh = inhibitors of CtBP/E1A interaction. AlphaScreen GST-E1A/His-CtBP binding, 1536-well; stronger effect = lower value; control for the full effect not named in the record. activity change, % (concentration not given with the values). hit rate 0.49% among 340,000; in the data active means activity change below about -65%; inconclusive means about -30% to -65%; inactive means above about -30%; also: % is scaled to controls: 0 for no effect and ±100 for the full control effect
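Homogeneous bead-based format: GST-tagged E1A captured on glutathione donor beads, His-tagged CtBP on nickel acceptor beads; compounds precede bead addition by 2 h at 37 °C.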
D2 potentiator = human D2 receptor positive allosteric modulation; P14416; DiscoveRx D2 beta-arrestin cells, luminescence, 90 min; 100% = 57 uM dopamine signal; potentiation, % (test concentration not listed); hit rate 0.23% among 360,000; AID 624464; active = potentiation of 50% or more; inconclusive = 30% to 50%; inactive = 30% or less;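 also: compound concentration not given in the record; tested on top of an EC20 dose of dopamine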
Target sequence (P14416 whole entry, looked up): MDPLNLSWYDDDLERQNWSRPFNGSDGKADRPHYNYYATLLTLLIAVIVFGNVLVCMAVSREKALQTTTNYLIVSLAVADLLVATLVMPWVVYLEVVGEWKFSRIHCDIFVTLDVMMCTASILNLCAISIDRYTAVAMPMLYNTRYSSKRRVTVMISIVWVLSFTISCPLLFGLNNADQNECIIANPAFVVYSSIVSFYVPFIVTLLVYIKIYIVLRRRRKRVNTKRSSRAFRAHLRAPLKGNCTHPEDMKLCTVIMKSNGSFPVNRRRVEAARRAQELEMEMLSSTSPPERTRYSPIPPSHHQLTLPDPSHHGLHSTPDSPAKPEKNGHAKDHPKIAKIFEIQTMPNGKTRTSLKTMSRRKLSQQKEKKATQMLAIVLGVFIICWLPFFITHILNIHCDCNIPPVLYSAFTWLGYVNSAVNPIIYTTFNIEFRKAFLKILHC
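PathHunter beta-arrestin assay in DiscoveRx D2 cells. Compounds were added with an EC20 of dopamine (50 nM final) for 90 min at 37 deg C. Luminescence was read 1 h after detection reagent, with 57 uM dopamine as the EC100 control.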
Six1-Eya2 inh = Six1/Eya2 interaction inhibition; AlphaScreen GST-Six1/His-Eya2 binding, biochemical; stronger effect = lower value; control for the full effect not named in the record; activity change, % (no concentration beside the values); hit rate 0.56% among 360,000; in the data active = activity change below about -65%; inconclusive = about -30% to -65%; inactive = above about -30%; also: % is scaled to controls: 0 for no effect and ±100 for the full control effect; compound concentration not given in the record
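Compounds are tested against tagged Six1 and Eya2 proteins bridged by glutathione donor and nickel acceptor beads; after a one-hour incubation at 37 °C without light, AlphaScreen emission is recorded.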
PINK1 expr mod = PINK1 expression modulation; Potency, µM (doses to about 76.6 µM), without a hit: at the highest dose activation (PINK1 increase), hits mostly activators; PINK1 immunofluorescence, high-content cytometry, 24 h; AID 624263; hit rate 0.2% among 410,000; active = well fitted activation curve with a large enough effect; inconclusive = small, poorly fitted or top-dose-only effect; inactive = flat fitted curve, though single readings scatter; cell line not stated here;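 also: potency is read from the fitted curve at half-maximal effect; % of control where 0% means no effect; nearly all actives have a fitted effect of over 65% in size; a mitochondrial uncoupler was the plate control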
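Readout is PINK1 immunofluorescence, quantified alongside mitochondrial, cell and nuclear markers by laser-scanning microplate cytometry. Cells from a stable line were exposed to compound titrations (5 concentrations) for 24 hours, with CCCP controls.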
D2 ag = activates the human D2 dopamine receptor. P14416. DiscoveRx PathHunter D2 beta-arrestin, luminescence, 90 min; 100% = 57 uM dopamine signal. activation, % (concentration not given with the values). hit rate 0.084% among 360,000. AID 624465; in the data active = activation above about 40%; inconclusive = about 15% to 40%; inactive = below about 15%; also: compound concentration not given in the record; the text of the record calls up to 30% inactive
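Agonist mode: compounds alone added to overnight-plated D2 PathHunter cells for 90 min at 37 C, with 57 uM final dopamine (EC100) defining full response. Beta-arrestin recruitment detected by chemiluminescent reagent, read after 1 h at ambient temperature.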
TRPML1 agonist = agonists of human TRPML1 channel; TRPML1-expressing cells, Ca2+ dye fluorescence, FDSS; host cell line not named in the record; reference of the full effect not given here; hit rate 0.12% among 410,000; AID 624414; Q9GZU1; activation, % (concentration not given with the values); in the data active = activation above about 50%; inconclusive = about 30% to 50%; inactive = below about 30%; also: 0% is about no effect; the text of the record puts the active cut at 80%
Target sequence (Q9GZU1 whole entry, looked up): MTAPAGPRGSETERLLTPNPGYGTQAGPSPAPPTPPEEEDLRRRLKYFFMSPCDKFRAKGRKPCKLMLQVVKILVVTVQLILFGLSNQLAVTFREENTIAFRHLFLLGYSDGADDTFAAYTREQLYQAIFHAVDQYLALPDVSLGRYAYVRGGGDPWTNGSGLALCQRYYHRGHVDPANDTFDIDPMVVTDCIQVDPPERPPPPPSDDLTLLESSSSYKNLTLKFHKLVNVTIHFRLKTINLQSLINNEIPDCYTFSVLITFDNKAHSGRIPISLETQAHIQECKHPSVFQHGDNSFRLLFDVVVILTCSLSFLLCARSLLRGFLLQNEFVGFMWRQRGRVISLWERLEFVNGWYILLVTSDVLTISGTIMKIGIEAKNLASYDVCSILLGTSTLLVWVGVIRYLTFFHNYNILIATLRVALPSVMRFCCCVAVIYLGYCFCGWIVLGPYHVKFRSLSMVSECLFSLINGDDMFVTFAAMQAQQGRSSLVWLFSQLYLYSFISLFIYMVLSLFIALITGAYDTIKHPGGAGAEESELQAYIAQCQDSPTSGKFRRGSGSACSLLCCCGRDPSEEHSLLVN
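Tetracycline-induced TRPML1-DL cells are seeded and incubated overnight before loading with a no-wash Ca2+ dye and quencher. Agonist activity is taken from the 110 s fluorescence read following compound pin-transfer on an FDSS, before EC80 54-4 challenge.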
* marks the source's active call; other numbers are inactive results; ? = inconclusive; . = not tested or not shown; & = joins results of further samples; [ ] = dose if it differs, or a comment.

SMILES | CtBP-E1A inh | D2 potentiator | Six1-Eya2 inh | PINK1 expr mod | D2 ag | TRPML1 agonist
CCOC(=O)C1(Cc2ccccc2C)CCCN(C(=O)c2cc(C3CC3)[nH]n2)C1 (stereo unspecified) | 4 | 2 | -2 | 1.3% | 0.7 | 0.5
CSCc1cc(N2CCOCC2)nc(SCc2ccc(Cl)cc2Cl)n1 | -2 | 2 | -4 | -0.6% | 2.4 | 2.5
CCN(C(=O)Cc1c(C(=O)O)n(CC)c2ccccc12)c1ccccc1C | . | -1 | 4 | 1.1% | 1.6 | 0.9
COc1cc(NS(=O)(=O)c2ccc(N=Cc3c(C)[nH]n(-c4ccccc4)c3=O)cc2)nc(OC)n1 | -7 | 0 | -9 | ? | -1.6 | -0.4
Cc1[nH]ccc(=O)c1OCc1c(Cl)cccc1Cl | 8 | -6 | 0 | 9.9% | -2.6 | -1.0
O=C(CN1C(=O)c2ccccc2C1=O)NCc1ccccn1 | -1 | 26 | 3 | -1.5% | -0.1 | 3.7
COc1ccc(N(CC(=O)NC2CCCC2)C(=O)CCC(=O)Nc2cc(C)on2)cc1 | 3 | -11 | -1 | 0.6% | -3.5 | 2.0
O=C(Nc1ccccc1)NC1CCS(=O)(=O)C1 (stereo unspecified) | 9 | 7 | 8 | 0.0% | -4.2 | -0.9
CC1CCC(C(=O)NC(C(=O)NCCN2CCC(C)CC2)C(C)C)CC1 (stereo unspecified) | 6 | -14 | 7 | 0.3% | 0.2 | 0.2
Cc1ccc(NC2SC(=O)N(CC(=O)O)C2=O)cc1 (stereo unspecified) | 3 | 2 | 0 | . | -1.8 | 0.6
CCc1ccc(C2CC(=O)N(c3cccc(F)c3)C3=C2C(=O)OC3)cc1 (stereo unspecified) | 1 | -7 | 0 | 2.2% | -0.9 | -0.2
CC[N+]1(CC)CC2=Cc3c(ccc4ccccc34)CC2C1 (stereo unspecified) | 1 | -2 | 0 | 0.7% | -1.1 | -0.9
CCN(C(=O)COc1ncnc2sccc12)c1ccccc1 | 5 | -4 | 2 | -0.9% | -1.8 | -0.8
CC(=O)c1ccc(OCC(O)CN2CCN(S(=O)(=O)c3cccc(Br)c3)CC2)cc1 (stereo unspecified) | 0 | -2 | 24 | -0.4% | -8.2 | 1.3
O=C(NC(Cc1ccccc1)C(=O)O)OCc1ccccc1 (stereo unspecified) | 0 | -1 | 1 | -1.5%[38.3 µM] | 1.5 | 0.5
Cc1cc(N=Cc2cc(Br)ccc2O)no1 | 2 | 3 | 2 | -1.0%[38.3 µM] | -1.1 | 2.7
N#C/C(=C\c1ccc(-c2ccc(C(=O)O)cc2)o1)c1nc2ccccc2[nH]1 | ? | -5 | -24 | 0.0%&0.1% | -3.4 | 61*
Cc1ccc(/C=C/C(=O)N2CCN(S(=O)(=O)c3ccc(C)c(C)c3)CC2)o1 | 0 | 3 | -1 | 3.5% | -2.0 | 1.9
CC(C)Cc1nc(C(N)=O)c2[nH]c(=O)n(-c3ccc(F)cc3)c2n1 | 4 | -2 | 2 | 3.1% | 2.2 | -0.7
COc1ccc(OC)c(S(=O)(=O)NCC(c2ccc(F)cc2)N2CCN(C)CC2)c1 (stereo unspecified) | 1 | -7 | 5 | -0.2% | -4.3 | 0.4
CCC(C)Nc1nc(N)c([N+](=O)[O-])c(N2CCCCCC2)n1 (stereo unspecified) | -9 | -2 | -6 | 9.4% | -3.3 | -0.2
COc1ccc(S(=O)(=O)N2CCc3ccccc32)cc1C(=O)N(CC(C)C)C1CCS(=O)(=O)C1 (stereo unspecified) | 13 | -13 | -2 | -1.7% | -5.4 | 0.3
CCN(CC)C(=O)Cn1cnc2sc(C(=O)Nc3cc(OC)c(OC)c(OC)c3)c(C)c2c1=O | 4 | -9 | 0 | 0.3%[38.3 µM] | 0.2 | -0.7
COc1ccccc1-c1ccc(=O)n(CC(=O)NC(C)(C)C)n1 | -1 | -11 | 3 | 0.4%[38.3 µM] | -0.2 | 0.2
O=C(NC(=S)Nn1cnc2c(cnn2-c2ccccc2)c1=O)c1ccc(Oc2ccccc2)cc1 | -2 | 5 | -10 | 5.0% | -3.6 | 0.1
COC(=O)COc1ccc(C2NC(=O)NC(c3ccccc3)=C2C(C)=O)cc1OC (stereo unspecified) | -3 | 1 | -15 | 1.0% | 0.2 | 1.3
COc1ccc(N(CC(=O)Nc2cccnc2)S(=O)(=O)c2ccccc2)cc1OC | 12 | -7 | -1 | -1.9% | -1.8 | -0.4
Cc1ccc(-c2nnn(CCC(=O)Nc3ccc4c(c3)OCO4)n2)cc1 | 12 | -17 | -1 | 0.0%[38.3 µM] | 1.4 | 0.0
COc1cccc(N2CCN(C(=O)C3CCCN(S(=O)(=O)c4ccc5c(c4)oc(=O)n5C)C3)CC2)c1 (stereo unspecified) | -10 | -11 | -2 | -1.0%&0.0% | 3.3 | -1.2&-0.7
Cc1cc(C)c(C)c(OCC(O)CN2CCN(c3ccccn3)CC2)c1 (stereo unspecified) | -2 | -3 | -7 | 4.1% | 48* | -1.0
COc1ccc(CN(C)CCc2ccccn2)c(OC)c1OC | -2 | 0 | 3 | -1.6% | -2.4 | -0.7
CC(=O)Oc1ccc2c(=O)oc(-c3ccccc3)nc2c1 | 4 | -5 | 12 | 1.2% | -1.9 | -0.4
Cc1ccc(NC(=O)c2ncn(CCCNCC3CCCO3)n2)cc1C (stereo unspecified) | -5 | . | 7 | -1.2% | -2.4 | -0.3
CC(C)(C)C1CCC(C(=O)OCC(=O)c2ccc[nH]2)CC1 (stereo unspecified) | -3 | 8 | 0 | ? | -2.1 | 1.1
COc1ccc2ncc(OC(C)=O)cc2c1 | 5 | -10 | 2 | 2.0% | -0.7 | 0.3
CCNC(=S)N1CCN(S(=O)(=O)c2ccc(Cl)s2)CC1 | 0 | -7 | 8 | -1.8% | -2.7 | -0.2
CNC(C)C(=O)NC(C(=O)N1CCCC1C(=O)NC1CCCc2ccccc21)C(C)C (stereo unspecified) | 3 | -7 | -2 | 0.1% | 0.5 | -0.1
CCn1nc(C(=O)Nc2nc(-c3ccccn3)cs2)c2ccccc2c1=O | . | 4 | ? | 3.1% | 2.0 | -0.6
CNS(=O)(=O)c1cccc(C(=O)OCC(=O)/C=C2/N(C)c3ccccc3C2(C)C)c1 | 14 | 17 | 0 | 0.4% | -1.1 | 2.5
CCN(C(=O)c1ccc2c(=O)n3c(nc2c1)CCCCC3)c1cc(OC)ccc1OC | 0 | -3 | 0 | 1.2% | -0.4 | 0.5

Arranged by the number under Six1-Eya2 inh (smallest number first): 3 of the compounds above
Compound	CtBP-E1A inh	D2 potentiator	Six1-Eya2 inh	PINK1 expr mod	D2 ag
COc1ccc(S(=O)(=O)N2CCc3ccccc32)cc1C(=O)N(CC(C)C)C1CCS(=O)(=O)C1 (stereo unspecified)	13	-13	-2	-1.7%	-5.4
CCN(C(=O)c1ccc2c(=O)n3c(nc2c1)CCCCC3)c1cc(OC)ccc1OC	0	-3	0	1.2%	-0.4
CCNC(=S)N1CCN(S(=O)(=O)c2ccc(Cl)s2)CC1	0	-7	8	-1.8%	-2.7

Other compounds follow.
SMILES | CtBP-E1A inh | D2 potentiator | Six1-Eya2 inh | PINK1 expr mod | D2 ag | TRPML1 agonist
CC1CCN(c2nc(-c3ccc(F)cc3)cc(C(F)(F)F)n2)CC1 | 41 | -15 | 50 | 4.6% | -0.5 | 3.5
O=C(COc1ccc(F)cc1)N/N=C/c1cccc2cccnc12 | -86* | -8 | ? | 1.5% | -4.4 | -0.6
CCc1nnc(NC(=O)c2cc3ccccc3oc2=O)s1 | 1 | -9 | 3 | -2.1% | -1.1 | -0.8
Cc1nn(-c2cccc(C(=O)O)c2)c(C)c1[N+](=O)[O-] | . | -4 | 2 | 0.7% | 0.9 | -0.3
CCOC(=O)C(Cc1ccc(NC(C)=O)cc1)N1C(=O)c2ccccc2C1=O (stereo unspecified) | 6 | 6 | -2 | 2.0% | 7.8 | 2.5
CCN(C(=O)COC(=O)c1ccc(OC)c(S(=O)(=O)N(C)Cc2ccccc2)c1)C1CCS(=O)(=O)C1 (stereo unspecified) | -14 | 4 | 1 | 5.3% | 0.7 | 1.6
O=C(CCCOc1ccccc1)NC(=S)Nc1ccccc1 | 0 | -5 | -1 | 1.2% | -3.4 | -0.2
CC(C)(C)OC(=O)NCCCCCc1nnc(SCC(N)=O)o1 | -2 | -6 | 3 | -0.1% | -1.7 | -0.7
COc1ccc(N(CC(=O)NC2CCCC2)C(=O)CCC(=O)Nc2cc(C)on2)cc1OC | -12 | -4 | 3 | 1.5% | -4.5 | -1.2
O=C(Nc1ccc(Cl)c(Cl)c1)C1CCN(C(=O)c2ccco2)CC1 | -1 | -20 | -8 | 7.4% | -4.7 | 0.2
Cc1nc2ccc(NC(=O)c3oc4ccc(F)cc4c3C)cc2s1 | -4 | -6 | -2 | 14% | -0.7 | 0.1
CCC(=O)N1CCN(c2ccccc2NC(=O)COc2cccc(C)c2)CC1 | -16 | -17 | -1 | -0.7%[38.3 µM] | -5.4 | 1.6
CN(CC1COCCO1)C(=O)c1cc(COc2c(F)cccc2F)on1 (stereo unspecified) | 18 | -10 | 0 | 3.3% | -4.2 | -0.4
Cn1c(CSc2nc3ccccc3s2)nnc1SCC(=O)NCc1cccnc1 | 2 | -6 | 25 | -1.2% | -1.5 | 0.7
Cc1ccc(NC(=S)NC2CCCCC2)cc1S(=O)(=O)N(C)C | -4 | -2 | -1 | 2.7% | -0.5 | -0.2
Cc1ccc(-c2nnn(CC(=O)N3CCN(c4ccccc4)CC3)n2)o1 | -6 | -6 | -13 | . | -3.4 | 0.2
COc1cccc(-c2cc(C(F)(F)F)n3ncc(S(=O)(=O)c4ccccc4)c3n2)c1 | 4 | -7 | 2 | 18%[38.3 µM] | -2.5 | -0.2
O=S(=O)(Nc1nc2ccccc2nc1Cl)c1ccccc1C(F)(F)F | 6 | 1 | 8 | 1.3% | 2.5 | 1.1
O=C(NCc1cccc(Cl)c1)NC(=O)c1csc([N+](=O)[O-])c1 | . | 4 | 0 | -0.7% | -3.1 | 0.5
Cc1cccn2c(=O)c3cc(C#N)c(=N)n(CCN4CCOCC4)c3nc12 | -2 | 1 | 9 | -1.0% | -0.7 | 0.2
N#Cc1ccc(NC(=S)NC(=O)C2CCCCC2)cc1 | 4 | -10 | 0 | 4.6% | -3.9 | 1.6
CC(=O)Nc1ccc(NC(=O)CSc2nnc(-c3ccco3)n2Cc2ccco2)cc1 | 0 | 1 | 0 | -3.2%[38.3 µM] | -1.9 | 0.2
CN1CCN(S(=O)(=O)c2ccc(Oc3ccc(F)c(Cl)c3)nc2)CC1 | 1 | 1 | -1 | 2.0% | 4.9 | 0.3

Copied from above (3 entries):
SMILES | CtBP-E1A inh | D2 potentiator | Six1-Eya2 inh | PINK1 expr mod | D2 ag | TRPML1 agonist
CC1CCN(c2nc(-c3ccc(F)cc3)cc(C(F)(F)F)n2)CC1 | 41 | -15 | 50 | 4.6% | -0.5 | 3.5
O=C(COc1ccc(F)cc1)N/N=C/c1cccc2cccnc12 | -86* | -8 | ? | 1.5% | -4.4 | -0.6
CCc1nnc(NC(=O)c2cc3ccccc3oc2=O)s1 | 1 | -9 | 3 | -2.1% | -1.1 | -0.8
